# CSC inhib – blocks cancer stem cells. inhibition, % at 7.5 µM. 1.1% of 300,000 active. AID 2717. cancer stem cell-like cells viability, luminescence;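 active = mean at 75% or more and at least half the replicates too; inconclusive = mean and replicates disagree; tested in HMLE shEcad cells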;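 also: 0% = median of negative and 100% = median of positive control wells; the first replicate is given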
# Yeast UUG start – yeast start codon fidelity modulation. activity score, % at 18.7 µM. AID 602363. S. cerevisiae UUG-firefly luciferase reporter, luminescence/redox ratio. 0.13% of 350,000 active;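 active = replicate mean at a twofold rise or more, about +100% in these data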;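 also: firefly luciferase made from a UUG start codon reports start codon fidelity; reporter light over untreated wells divided by growth signal over untreated wells; some hits fall short of that in this replicate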
# MT1-MMP act inh – MT1-MMP (human) activation inhibition; P50281; HT1080 RFP-PRO-GFP cells, GFP/RFP ratio fluorescence, overnight; percent of plate control window, DMSO zero; GFP/RFP ratio change, % at 20 µM; 0.061% of 360,000 active;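 active = GFP/RFP ratio change of at least 30% with cell ATP level not reduced by more than half and red fluorescence within 50% of control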; also: strong numbers were not always called active
#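 Assay system: RFP-PRO-GFP reporter HT1080 cells; read-out basis: GFP/RFP fluorescence ratio; benchmarks: DMSO wells and RFP-L50D-GFP cells; doses: 20 µM single dose, 1% DMSO; schedule: overnight cell settling, then overnight compound exposure, 37 °C, 5% CO2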
# HIV Env fusion – blocks HIV Env-driven cell-cell fusion | HeLa-JRFL Env/CEM21 cell fusion, luciferase | inhibition, % at 12.3 µM | 1.1% of 360,000 active | AID 651610;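 active = mean replicate inhibition score of at least 50 and every replicate individually at or above 50; inconclusive = only one of the two criteria met; inactive = mean below 50 and not all replicates reaching 50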;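 also: 0% = plate neutral controls and 100% = maraviroc near 300 nM; one replicate is shown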
# Rce1 inhib – yeast Ras-converting enzyme inhibition | Q03530 | yeast membranes, quenched prenylated peptide cleavage fluorescence | calls only | 0.27% of 290,000 active;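 active = fall in fluorescence gain of 50% or more versus controls, with final raw signal at or below 3038400; inconclusive = same 50% fall but final raw signal above 3038400; inactive = fall in fluorescence gain under 50%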;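 also: plate controls were neutral control wells for no effect and wells lacking membranes for full effect; tested at 10 µM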
# Target sequence (Q03530 whole entry, looked up): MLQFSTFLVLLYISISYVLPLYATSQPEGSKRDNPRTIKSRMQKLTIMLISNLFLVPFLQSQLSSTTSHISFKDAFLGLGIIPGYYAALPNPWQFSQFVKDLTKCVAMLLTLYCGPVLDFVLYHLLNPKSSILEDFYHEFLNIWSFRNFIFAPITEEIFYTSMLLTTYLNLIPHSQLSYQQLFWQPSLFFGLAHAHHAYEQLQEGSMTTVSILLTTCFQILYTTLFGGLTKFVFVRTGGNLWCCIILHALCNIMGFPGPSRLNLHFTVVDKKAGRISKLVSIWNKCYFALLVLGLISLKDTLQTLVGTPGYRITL
# PABP FP inh – blocks human PABP binding to poly(A) RNA; P11940; fluorescence polarization; inhibition, % at 35 µM; 1% of 290,000 active;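 active = 50% or more with normal probe brightness, or confirmed in later tests; inconclusive = above 50% with abnormal brightness, or retests that disagree; inactive = below 50% or failed in later tests; about a fifth of its hits are not listed in these tables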;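 also: calls also rest on retests at 20 µM and on dose response follow-up; controls were probe without protein and protein plus probe with vehicle; some compounds called inactive have numbers as strong as hits; many hits fall short of the cut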
# eIF4H FP inh – inhibitors of RNA binding by human eIF4H | 0.94% of 290,000 active | eIF4H fluorescence polarization binding assay | inhibition, % at 35 µM | AID 2012 | Q15056;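 active = 50% or more with normal probe brightness, or confirmed in later tests; inconclusive = above 50% with abnormal brightness, or retests that disagree; inactive = below 50% or failed in later tests; about a fifth of its hits are not listed in these tables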;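 also: calls also rest on retests at 20 µM and on dose response follow-up; 0% = protein and probe with vehicle and 100% = probe without protein; strong numbers were not always called active; many hits fall short of the cut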
# MT1-MMP act inh RFP – further read-out of MT1-MMP act inh, marked with its call; RFP signal change, %; measured here: RFP expression control read;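 0 = vehicle wells; hits needed this value within 50% of zero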
# Active calls of the source: *; i = inactive; ? = inconclusive; / = no result given; & = joins results of further samples; [ ] = dose if it differs, or a comment.
SMILES,CSC inhib,Yeast UUG start,MT1-MMP act inh,MT1-MMP act inh RFP,HIV Env fusion,Rce1 inhib,PABP FP inh,eIF4H FP inh
Cc1cc(C(=O)CSc2nn(-c3ccccc3)c(=S)s2)c(C)n1Cc1ccco1,24.8,-13.7,-5.1,-2.8,-23.8,i,32.5,47.7
O=C(N1CCN(c2ccccc2)CC1)C(F)(F)C(F)(F)F,-0.2,/,2.5,-2.1,/,i,-2.3,6.2
CN(CC(=O)Nc1ccc(Cl)cc1)C(=O)c1ccc(NS(=O)(=O)c2ccc3[nH]c(=O)[nH]c3c2)cc1,-7.5,-5.4,/,/,/,i,/,/
COC(=O)CN1C(=O)[C@H]2[C@@H](C3CC3)N3C(=O)CN(Cc4ccccn4)C(=O)[C@@]3(Cc3ccccc3)[C@H]2C1=O,-16.7,-11.9,0.5,3.4,-13.1,i,9.6,15.2
CCCOC(=O)c1ccc(Cl)c(NC(=O)c2ccc(-c3ccccc3)cc2)c1,12.3,5.7,5.4,2.4,/,i,9.6,8.0
Cc1cc(NC(=O)CSc2nc(=O)n3cccc(C)c3n2)no1,-8.5,4.5,-2.3,0.6,-2.0,i,/,/
CN(NC(=O)c1ccccc1F)c1ccc([N+](=O)[O-])cn1,8.1,-11.7,0.1,-0.5,2.9,i,-8.1,-3.3
Cc1cc(Sc2nnc(N)s2)c2ccccc2n1,43.8,/,4.6,-8.8,53.3,i,-6.1,-9.6
Cc1c(OCC(=O)N(C)c2ccccc2)ccc2c3c(c(=O)oc12)CCC3,/,22.7,0.9,-0.2,7.2,i,7.4,-16.0
Cc1ccc(OC(=O)c2cncc(Br)c2)c(C)c1,-12.8,-7.8,-3.6,-3.6,7.1,i,-3.2,4.1
CCCCS(=O)(=O)N1CCCC(C(=O)NCCc2ccccc2)C1 (centres undefined),15.0,-12.8,-1.4,-3.4,8.8,i,9.4,-0.3
Cc1ccc(N/N=C(\C#N)C(=N)N2CCOCC2)cc1,-7.7,/,1.4,2.9,-14.9,i,-2.0,3.8
CCC1CCCCN1S(=O)(=O)c1ccccc1[N+](=O)[O-] (centres undefined),7.0,3.4,0.1,-2.4,15.9,/,-3.2,-0.3
CCCCCC(=O)Nc1cccc(C2=NOC3(C2)C[C@@H](C(N)=O)N(C(=O)c2cc([N+](=O)[O-])cc([N+](=O)[O-])c2)C3)c1 (some centres undefined),-11.1,23.0,1.0,1.7,9.8,i,15.0,3.8
CCn1c(N2CCN(CC(=O)c3c(C)n(C)c4ccccc34)CC2)nc2c1c(=O)[nH]c(=O)n2C,8.4,-9.6,-3.6,-2.7,/,i,17.0,7.6
CCCCn1c(SCC2CCCCO2)nc2cc(S(N)(=O)=O)ccc21 (centres undefined),-8.2,/,2.9,-2.1,-76.9,i,-4.5,7.8
N#CC1=C(SCc2ccccc2Cl)NC(=O)C(C(N)=O)C1 (centres undefined),-12.6,-5.8,7.1,11.5,/,i,-2.7,0.4
N#Cc1cc2ccccc2nc1SCC(=O)NC1CC1,1.6,-11.3,4.7,4.7,-4.4,i,-4.6,-3.8
COc1ccc(C2=CC(c3c(C)nn(-c4ccccc4)c3Cl)n3nnnc3N2)cc1OC (centres undefined),-0.6,9.4,-20.5,-6.5,/,/,34.4,31.0
CCn1c(/C(C#N)=C(\O)CCc2ccccc2)nc2ccccc21,-2.0,/,-40.9,-29.6,-66.7,i,-5.2,-9.5
CSC(=S)NCc1cccnc1,34.8,/,1.5,-1.4,8.5,i,40.8,-2.6
CCOc1ccc(Cn2c(C)nc([N+](=O)[O-])c2SCC(O)CCl)cc1[N+](=O)[O-] (centres undefined),-20.5,-16.2,3.7,-2.4,/,i,0.5,-6.8
C[C@@H](NC(=O)/C(C#N)=C/c1ccc(O)c(O)c1)c1ccccc1,52.1,-15.7,-0.7,-8.8,-31.0,/,/,/
c1csc(C(c2nnnn2C2CCCCC2)N2CCCC3(CCCCC3)C2)c1 (centres undefined),1.1,-23.5,-5.6,-9.1,114.6*,i,-4.8,-5.1
COc1ccc(N2C(=O)CC(c3cc(OC)c(OC)c(OC)c3)CC2=O)cc1,3.3,-8.1,-0.9,-2.4,0.6,i,-8.7,-3.7
O=C(CCCn1cnc([N+](=O)[O-])n1)Nc1cccc(Cl)c1Cl,19.8,/,-5.1,-0.5,6.9,i,8.2,-0.3
COc1cccc(/C=C/C(=O)Nc2ccc3c(c2)OCCO3)c1OC,14.6,/,2.2,-3.6,-134.1,i,4.2,4.5
CCOC(=O)CC1(NC(=O)C2CCC(=O)N(Cc3ccccc3OC)C2)CCCCC1 (centres undefined),-2.1,-12.9,-4.7,3.5,-1.8,i,1.3,-12.7
CSCCC(NC(=O)c1ccccc1)C(=O)Nc1ccc(C)cc1 (centres undefined),-7.4,/,-4.4,-5.6,3.0,i,-9.6,-3.5
NC(=O)[C@@H]1CCCN1C(=O)c1ccc2nc(Cc3cccc(Cl)c3)oc2c1,0.0,-1.4,-0.5,-3.2,-201.3,i,9.3,0.6
COc1cc(NC(=S)NN2CCN(C)CC2)cc(OC)c1OC,-42.8,1.1,1.0,5.0,-10.5,i,-7.3,-2.8
Cc1c(NC(=O)CSc2ccc3c(c2)OCCO3)c(=O)n(-c2ccccc2)n1C,-7.4,-11.3,0.4,-2.3,2.7,i,0.7,3.0
CCOC(=O)C1CCN(S(=O)(=O)c2cc(F)ccc2OC)CC1,-12.1,/,-0.3,-0.2,24.5,i,-14.1,-8.3
Cc1cc(C(=O)COC(=O)CNS(=O)(=O)c2ccc3ccccc3c2)c(C)n1-c1ccccc1,/,/,0.9,3.7,-19.7,i,16.1,1.1
COc1cc(C(=S)N2CCOCC2)ccc1OC(=O)c1ccc(Br)cc1,-6.6,-8.2,-1.5,-2.1,1.7,i,-5.9,-2.8
COc1cccc(OC)c1OCCCOc1c(OC)cccc1OC,-4.7,22.8,-8.0,3.8,-358.1,i,12.9,4.0
COc1ccc(CCC(C)NCC(C)c2ccccc2)cc1 (centres undefined),-2.1,-23.5,-3.9,-2.2,-27.1,i,11.4,3.1
CC1(C(=O)NCc2cccnc2)CCN1C(=O)c1cccc(F)c1 (centres undefined),/,10.1,-1.9,0.4,10.2,/,/,/
CC(C)CN(C(=O)CCCc1nc2ccccc2c(=O)[nH]1)c1c(N)n(Cc2ccccc2)c(=O)[nH]c1=O,-10.2,2.1,3.1,3.6,-16.8,i,/,/
CCOC(=O)C(C)c1ccc2cc(OC)ccc2c1 (centres undefined),-9.7,-11.3,-4.5,-0.5,-33.6,i,-9.9,-8.3

# Looked up above:
# `CC1(C(=O)NCc2cccnc2)CCN1C(=O)c1cccc(F)c1` (centres undefined) in MT1-MMP act inh reads -1.9
# `CCOC(=O)C1CCN(S(=O)(=O)c2cc(F)ccc2OC)CC1` in PABP FP inh reads -14.1
# `COc1cc(NC(=S)NN2CCN(C)CC2)cc(OC)c1OC` in HIV Env fusion reads -10.5
# `COc1ccc(CCC(C)NCC(C)c2ccccc2)cc1` (centres undefined) in HIV Env fusion reads -27.1
# `Cc1c(NC(=O)CSc2ccc3c(c2)OCCO3)c(=O)n(-c2ccccc2)n1C` in MT1-MMP act inh reads 0.4
# `CC(C)CN(C(=O)CCCc1nc2ccccc2c(=O)[nH]1)c1c(N)n(Cc2ccccc2)c(=O)[nH]c1=O` in CSC inhib reads -10.2

# 2 of the compounds above, bar-delimited:
structure | CSC inhib | Yeast UUG start | MT1-MMP act inh | MT1-MMP act inh RFP | HIV Env fusion | Rce1 inhib | PABP FP inh | eIF4H FP inh
Cc1cc(C(=O)COC(=O)CNS(=O)(=O)c2ccc3ccccc3c2)c(C)n1-c1ccccc1 | / | / | 0.9 | 3.7 | -19.7 | i | 16.1 | 1.1
COc1cc(C(=S)N2CCOCC2)ccc1OC(=O)c1ccc(Br)cc1 | -6.6 | -8.2 | -1.5 | -2.1 | 1.7 | i | -5.9 | -2.8

# Later entries:
SMILES,CSC inhib,Yeast UUG start,MT1-MMP act inh,MT1-MMP act inh RFP,HIV Env fusion,Rce1 inhib,PABP FP inh,eIF4H FP inh
Cc1noc(C)c1NC(=O)Nc1ccc2c(c1)C(=O)N([C@H](C)CO)C[C@H](C)[C@@H](CN(C)C(=O)Nc1c(C)noc1C)O2,/,-9.8,-0.7,3.9,-10.6,/,/,/
COc1ccc(-c2cc(-c3ccccc3)nc(NN)n2)cc1OC,11.7,-28.8,2.9,-1.4,7.0,i,-5.5,-17.6
O=C(Cc1cccs1)NCc1ccncc1,7.7,-1.3,1.1,3.0,/,i,2.2,-4.8
O=C(CCCN1C(=O)NC2(CCCC2)C1=O)NCc1ccccc1,-9.8,-23.8,-2.0,5.9,/,/,/,/
Nc1nc(Nc2ccc(Cl)cc2)nc(NCc2ccco2)c1[N+](=O)[O-],26.0,7.6,2.7,-4.5,58.8*,i,-1.6,-3.8
CCCS(=O)(=O)NC(=O)C1(C)CCCN(C(=O)Cc2ccc3ccccc3c2)C1 (centres undefined),/,-1.3,2.9,5.4,-1.3,/,/,/
C[C@H](CO)N1C[C@H](C)[C@@H](CN(C)C(=O)Nc2ccc3c(c2)OCO3)Oc2c(NC(=O)C3CCCCC3)cccc2C1=O,/,-5.6&4.7,2.8,6.3,9.7,/,/,/
O=C(CN1c2ccccc2Sc2ccccc21)NNC(=S)Nc1ccc(Cl)cc1Cl,?,/,6.4,-30.6,/,i,-4.9,13.5
NC(=O)CSc1nnc(-c2ccc(S(=O)(=O)N3CCCC3)cc2)n1Cc1ccco1,-6.5,/,4.1,4.7,/,i,-1.6,-4.6
O=[N+]([O-])c1ccc(/C=N/NC(=S)Nc2ccccc2C(F)(F)F)o1,0.4,/,-0.2,3.3,11.4,i,0.3,24.4
O=[N+]([O-])c1ccc(-c2csc(COc3ccccc3)n2)cc1,/,-31.4,3.8,-6.2,-31.0,/,/,/
COc1ccc2[nH]c3nc(SCc4nnc(-c5ccccc5)o4)nnc3c2c1,6.4,/,2.7,-12.9,?,i,-0.3,6.0
CC(C)(C)c1ccc(C(=O)NN2C(=O)CSC2=S)cc1,-3.6,-15.4,11.0,35.7,7.9,i,-26.6,-11.1
COC(=O)c1c(C)[nH]c(C(=O)OC(C)C(=O)NC2CCCCC2C)c1C (centres undefined),/,-1.4,-0.5,-6.3,-3.8,/,/,/
COc1ccccc1NC(=O)Nc1c(C)nn(C)c1C,4.0,/,1.1,2.0,3.2,i,1.2,-7.2
CC(=O)Nc1cccc(-c2cc(NC(C)=O)c3ncc(-c4ccc(F)cc4)n3c2)c1,/,-3.6,-6.7,-0.9,21.0,/,/,/
COC(=O)CSc1nc(N)c(NC(=O)c2ccc(OC)c(OC)c2)c(=O)[nH]1,-9.2,-0.7,4.0,5.8,/,i,1.7,-15.0
Cc1cccc(C(=O)OCC(=O)c2ccc3c(c2)OCCO3)c1O,-14.5,-19.4,-2.2,-6.7,-71.0,/,/,/
CC[C@H](C)[C@@H](C(=O)NCCCCCCCCCCC(=O)N1CCNCC1)n1cc(CCCCN=C(N)N)nn1,-8.1,9.3,4.0,0.4,-91.3,/,/,/
Cc1cc(S(=O)(=O)N2CCN(Cc3ccc4c(c3)OCO4)CC2)cc(C)c1N1CCCC1=O,12.3,-3.5,2.7,-25.9,10.6,i,-6.3,-8.7
CCCC(=O)OCCNc1cc(SCCC(=O)OC)c2nonc2c1[N+](=O)[O-],-0.4,/,1.6,1.3,5.5,i,-8.7,-16.0
O=C(C[C@@H]1CC[C@H](NC(=O)Cc2ccccn2)[C@@H](CO)O1)NCCc1ccccc1,/,10.1,-3.1,-0.5,-5.2[16.7 µM],/,/,/
Cc1cc(NC(=O)Cc2ccccc2)c2ccccc2n1,-3.2,-11.2,-2.5,-25.5,2.4,i,-12.8,-6.3
CC(=O)c1ccc(S(=O)(=O)N2CCN(CC(=O)Nc3ccccc3C(=O)NC3CC3)CC2)cc1,/,-4.4,-0.9,1.1,-5.6,/,/,/

# From PubChem BioAssay

# The list is partial, so the mix of outcomes need not match the whole.
